HNF4A DNA FP – change in binding of human HNF4 alpha to DNA; P41235; HNF4a-FITC DNA binding, fluorescence polarization, 1 h; activity change, % at 10 µM; actives 0.3% (n = 360,000); AID 1224865; in the data active = activity change above about 30%, passing the limit was not always enough;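 note: controls were the assay level and a saturating level of protein; the project sought stronger binding though the title names inhibitors; some compounds called inactive have numbers as strong as hits; positive values seem to mean higher polarization but the record does not say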
Target sequence (P41235 whole entry, looked up): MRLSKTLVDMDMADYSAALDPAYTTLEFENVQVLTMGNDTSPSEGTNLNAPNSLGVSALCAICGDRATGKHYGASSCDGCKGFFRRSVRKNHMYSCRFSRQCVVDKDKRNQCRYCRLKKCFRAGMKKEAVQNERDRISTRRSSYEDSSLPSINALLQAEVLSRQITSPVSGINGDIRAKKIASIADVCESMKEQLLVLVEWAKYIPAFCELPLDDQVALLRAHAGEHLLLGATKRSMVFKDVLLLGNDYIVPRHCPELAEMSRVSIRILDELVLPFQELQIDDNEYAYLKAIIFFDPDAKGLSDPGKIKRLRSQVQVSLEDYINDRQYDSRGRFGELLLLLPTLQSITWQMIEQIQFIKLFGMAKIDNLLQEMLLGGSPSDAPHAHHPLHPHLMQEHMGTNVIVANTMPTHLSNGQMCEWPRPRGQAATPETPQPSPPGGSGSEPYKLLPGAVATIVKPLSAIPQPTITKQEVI
B2AR ag – human beta-2 adrenergic receptor agonism by FAP; response, % (concentration not given with the values); Am2.2-beta2AR cells, FAP receptor internalization, flow cytometry; reference of the scale not given here; actives 0.43% (n = 340,000);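 active = response above a set limit, near 3 SD of response in nonfluorescent compounds, cut at about 42% in these data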;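 note: stock transfer was 100 nL into about 11 µL; a reference agonist was the positive control; negative values mostly stem from fluorescent compounds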
FGF22 binding – binders of recombinant human FGF22 by thermal shift; actives 1.5% (n = 340,000); SYPRO orange fluorescence; percent of sucrose octasulfate shift, DMSO zero; calls only at 9.99 µM; Q9HCT0;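 active = melting point raised past a set limit in the mean and every replicate; three in four hits are not shown here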
Target sequence (Q9HCT0 whole entry, looked up): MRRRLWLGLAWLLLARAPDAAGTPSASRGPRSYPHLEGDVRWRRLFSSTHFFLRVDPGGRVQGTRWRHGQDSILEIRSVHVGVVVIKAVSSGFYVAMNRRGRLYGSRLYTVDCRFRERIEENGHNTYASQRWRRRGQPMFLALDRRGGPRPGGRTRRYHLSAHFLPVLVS
Ecoli rRNA inh – inhibitors of bacterial rRNA selective over humanized ribosomes. E. coli WT GFP vs humanized-ribosome RFP mutants, fluorescence, 24 h; active compounds read low; DMSO median 0, no signal -100. GFP signal change (wild-type ribosome), % (concentration not given with the values). actives 1.6% (n = 350,000). AID 720706;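 active = significant combined selectivity score with lowered wild-type GFP, culture density cut under 30%, mutant RFP and density less affected; inactive = any of these conditions unmet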; note: one replicate is shown; some compounds called inactive have numbers as strong as hits
ALR H2O2 inh – blocks human ALR sulfhydryl oxidase activity. P55789. purified ALR, DTT oxidation, H2O2 HRP-luminol luminescence. inhibition, % (test concentration not listed). actives 3.8% (n = 290,000). AID 485317;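 active = mean and each replicate at 75% or more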;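 note: stock transfer was 7.5 nL into about 7.5 µL; 0% = neutral wells and 100% = wells with inactivated enzyme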
Target sequence (P55789 whole entry, looked up): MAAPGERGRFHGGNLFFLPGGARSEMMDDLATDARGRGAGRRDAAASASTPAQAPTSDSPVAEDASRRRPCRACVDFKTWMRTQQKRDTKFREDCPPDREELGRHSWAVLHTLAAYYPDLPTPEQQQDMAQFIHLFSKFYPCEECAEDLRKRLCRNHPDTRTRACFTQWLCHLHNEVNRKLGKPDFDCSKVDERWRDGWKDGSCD
E coli growth – blocks Escherichia coli growth; OD600, 23 h; active compounds read low; OD600 absorbance (concentration not given with the values); actives 0.21% (n = 330,000); AID 1053175;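 active = OD600 absorbance below the run mean of sample wells minus 3.6 SD, in any replicate, cut at about 0.56 in these data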;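 note: stock transfer was 300 nL into about 60 µL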
UCH37 DUB inh – blocks the human deubiquitinase UCH37; Q9Y5K5; purified proteasome/UCH37, Ub-AMC cleavage fluorescence; inhibition, % (no concentration beside the values); actives 0.33% (n = 330,000); AID 588478;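 active = mean of two replicates above 20%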;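 note: 0% = compound-free wells with enzyme and 100% = wells lacking proteasome; stock transfer was 100 nL into about 20 µL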
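System: Proteasome-associated human UCH37 deubiquitinase; Input: 0.15 nM proteasome in added enzyme buffer; Also added: Ub-AMC substrate from 1 µM stock; Incubation: 30 min compound-proteasome preincubation then 25 min substrate reaction, room temperature; Detection: fluorescence, ex 355 nm, em 460 nm; Read-out: % inhibition of Ub-AMC cleavage fluorescence; Benchmarks: no-proteasome and no-compound wells.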
Ecoli rRNA inh OD600 – also measured in Ecoli rRNA inh; calls as there; OD600 change, %; measured here: OD600 growth;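 optical density of the mix in the first replicate; 0 = DMSO median and -100 = no signal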
Ecoli rRNA inh RFP – also measured in Ecoli rRNA inh; calls as there; RFP signal change, %; measured here: RFP humanized mutant strains;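 first replicate; 0 = DMSO median and -100 = no signal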
* = called active by the depositor; i = inactive; x = not tested or not shown.

SMILES | HNF4A DNA FP | B2AR ag | FGF22 binding | Ecoli rRNA inh | Ecoli rRNA inh OD600 | Ecoli rRNA inh RFP | ALR H2O2 inh | E coli growth | UCH37 DUB inh
CC(NC(=O)c1cccnc1)C(c1cccs1)N1CCOCC1 (stereo unspecified) | -0.4 | 1 | i | 15 | 8 | 3.2 | -3 | 0.64 | 1.6
Cc1ccc(C)c(C(=O)CN2C(=O)NC3(CCCCCC3)C2=O)c1 | -6.8 | -1 | i | 10 | 5 | -0.6 | x | 0.67 | 5.0
Cc1ccc(NC(=O)/C(=C\c2cccc(Br)c2)NC(=O)c2ccco2)cc1 | 0.6 | x | x | x | x | x | -3 | 0.65 | 1.1
CCN1CCCC1CNCc1ccc(Cl)cc1Cl (stereo unspecified) | 3.1 | -1 | x | x | x | x | -3 | 0.64 | 1.9
O=C(Nc1ccncc1)C1CCN(S(=O)(=O)c2ccccc2C(F)(F)F)CC1 | -6.7 | 9 | i | -18 | -15 | -2.7 | 4 | 0.72 | 4.3
Cc1ccc(CNC(=O)C2CCC(CNc3c(N4CCOCC4)c(=O)c3=O)CC2)cc1 (stereo unspecified) | 3.7 | 3 | i | 12 | 19 | -0.3 | -2 | 0.67 | 4.8
CCCCCC/C(=N\NS(C)(=O)=O)c1ccccc1 | 2.2 | 4 | x | x | x | x | 19 | x | x
CCOC(=O)C(Sc1nnc(-c2ccncc2)o1)C(C)=O (stereo unspecified) | 0.8 | -2 | x | x | x | x | 12 | 0.68 | 3.5
COc1ccccc1N1CCN(CC(=O)Nc2ccnn2C2CCCC2)CC1 | 0.1 | 0 | i | 3 | -2 | -0.6 | 22 | 0.65 | 1.2
N#Cc1ccc(C23CC4(C2)[C@H](CN(Cc2cccnc2)[C@@H]4c2ccccc2)C3c2ccccc2)cc1 (stereo partly specified) | 5.9 | 7 | i | 5 | 7 | 1.7 | 0 | x | 2.4
O=C(NC(=S)Nc1ccccc1O)c1ccc(-c2ccc(Cl)cc2)o1 | -1.3 | 2 | x | x | x | x | -27 | 0.76 | 7.2
COc1cccc(/C=N/NC(=O)CNC(=O)COc2ccccc2)c1O | 1.5 | 8 | i | -13 | -4 | 6.5 | x | x | x
Cc1cc2c3c(c1)C1(SCC(=O)N1c1ccc(F)cc1)C(=O)N3C(C)(C)CC2C (stereo unspecified) | -2.6 | 4 | x | x | x | x | -4 | 0.68 | 4.5
CC1=C(C(=O)OCCC#N)C(c2cc3c(cc2Br)OCO3)NC(=O)N1 (stereo unspecified) | -2.6 | 1 | i | 1 | -1 | -0.3 | -10 | 0.6 | 2.4
CCCCn1c(N)c(N(CC(C)C)C(=O)C2CCN(S(=O)(=O)c3ccc(C)cc3C)CC2)c(=O)[nH]c1=O | 3.1 | 2 | i | 13 | 15 | 0.1 | x | 0.67 | 3.6
Cn1c(=O)n(C)c2cc(NS(=O)(=O)c3ccc(Cl)s3)ccc21 | 3.8 | -2 | i | -21 | -20 | -3.9 | -11 | 0.67 | -0.3
CCOC(=O)N1CCC(NC(=O)CN(c2ccc(C(C)C)cc2)S(=O)(=O)c2c(C)nn(C)c2C)CC1 | 5.8 | -2 | i | -1 | 5 | -0.2 | -1 | 0.68 | 1.0
Cc1cccc(N2CC(c3nc4ccccc4n3C)CC2=O)c1C (stereo unspecified) | 2.6 | -3 | i | -54 | -80 | -15 | -15 | 0.77 | 1.9
O=C(CNC(=O)c1ccc(Br)o1)NNC(=O)c1ccccc1 | 0.6 | -2 | i | 8 | 6 | 0.9 | x | 0.66 | 0.7
O=C(c1ccc2c(c1)OCCCO2)c1cccs1 | -4.9 | -7 | x | x | x | x | 13 | 0.68 | 5.3
O=C1NC(=Nc2cccc(Cl)c2)SC1Cc1cccc(Cl)c1Cl (stereo unspecified) | -1.2 | 5 | i | 28 | 9 | -1.6 | -8 | 0.69 | 4.7
O=C(Cc1ccccc1)N/N=C/c1ccccn1 | -1.9 | -3 | x | x | x | x | -1 | x | x
O=C(NN1C(=O)NC2(CCCCC2)C1=O)c1ccc(-c2ccc(Cl)cc2)o1 | -0.8 | 6 | i | -23 | -29 | -8.1 | -5 | 0.7 | -22
COc1ccccc1C(=O)NCC1CCN(c2ccc(S(=O)(=O)N3CCOCC3)cc2)CC1 | 0.3 | -6 | x | x | x | x | -2 | 0.67 | 4.3

Looked up one by one from the list above (2):
SMILES | HNF4A DNA FP | B2AR ag | FGF22 binding | Ecoli rRNA inh | Ecoli rRNA inh OD600 | Ecoli rRNA inh RFP | ALR H2O2 inh | E coli growth | UCH37 DUB inh
O=C(Cc1ccccc1)N/N=C/c1ccccn1 | -1.9 | -3 | x | x | x | x | -1 | x | x
Cc1ccc(NC(=O)/C(=C\c2cccc(Br)c2)NC(=O)c2ccco2)cc1 | 0.6 | x | x | x | x | x | -3 | 0.65 | 1.1

Remaining list, next part.
SMILES | HNF4A DNA FP | B2AR ag | FGF22 binding | Ecoli rRNA inh | Ecoli rRNA inh OD600 | Ecoli rRNA inh RFP | ALR H2O2 inh | E coli growth | UCH37 DUB inh
O=C(NCc1ccc(F)cc1)C(c1cccnc1)N(C(=O)c1csnn1)c1ccccc1 (stereo unspecified) | 1.5 | -6 | x | 2 | 5 | 0.3 | -5 | 0.7 | 6.1
CC(=O)n1c2c(c3ccccc31)OC(N)=C(C#N)C2c1ccc(C(C)C)cc1 (stereo unspecified) | 3.3 | 8 | i | -15* | 6.1* | -0.2* | -15 | 0.68 | -14
CC(C)(C)C(=O)Nc1nc(-c2ccccc2)ns1 | -1.1 | -4 | x | x | x | x | x | 0.68 | 0.9
O=C(COc1ccc(-c2nnco2)cc1)N1CCN(S(=O)(=O)c2ccc3ccccc3c2)CC1 | 0.0 | -4 | x | x | x | x | x | 0.73 | 2.8
CCOC(=O)[C@]12CCC=C1N(Cc1cccc3ccccc13)C(=O)[C@H](CC(=O)NCc1ccccc1)C2 | 4.5 | x | i | 9 | 1 | 7.8 | x | x | x
CCCNC(=O)C1(C)CCCN(C(=O)c2cc(F)cc(F)c2)C1 (stereo unspecified) | 2.1 | x | i | 13 | 14 | 2.6 | x | x | x
Cc1sc2nc(C(C)Sc3n[nH]c(N)n3)[nH]c(=O)c2c1C (stereo unspecified) | x | x | i | 5 | -1 | 1.2 | -3 | 0.71 | 1.9
CN(C1CCCCC1)S(=O)(=O)c1ccc(SCC(=O)NC(C)(C)C)nc1 | 1.6 | -2 | i | 7 | 10 | -1.2 | 0 | 0.7 | 2.5
O=C(Nc1ncccn1)C1CCCCC1 | -3.0 | 0 | i | 6 | 9 | -0.8 | -11 | 0.64 | -4.5
O=C1CCN(CCCc2ccccc2)CCN1[C@H](CO)Cc1ccccc1 | 0.8 | -2 | i | -2 | -3 | -5.2 | -1 | x | 4.7
CCCOc1ccccc1C1NC(=O)NC(C)=C1C(=O)OCc1ccccc1 (stereo unspecified) | -0.5 | -2 | x | x | x | x | -1 | 0.67 | 1.5
Cc1sc2ncn(CC(=O)NCCCC(=O)N3CCCCC3)c(=O)c2c1C | 1.3 | -11 | i | 5 | 4 | -0.1 | -4 | 0.64 | -2.5
C=CC[C@@H](CC(=O)N[C@H](CO)Cc1ccccc1)C(=O)N[C@H](C)COC(=O)[C@@H](CC=C)CC(=O)OC(C)(C)C | 0.5 | -7 | i | 7 | -6 | 4.2 | -1 | x | 1.5
CC(Sc1ccccn1)C(=O)NC1CCCC1 (stereo unspecified) | 0.5 | -12 | i | 5 | 9 | 0.1 | 2 | 0.7 | 0.1
COc1cccc(C(=O)NC(C)C(c2cccs2)N2CCOCC2)c1 (stereo unspecified) | -1.4 | -7 | i | 7 | 1 | -1.4 | -2 | 0.75 | 0.9
COc1ccc(C(=O)NC2CCN(C(=O)NCc3ccccc3)CC2)cc1 | -0.3 | 15 | i | 6 | 15 | 1.0 | 1 | 0.67 | -0.3
CCC1(CC)C(=O)C2=C3C1[C@H](C(=O)OC)C=C(C(=O)OC)C[C@H]3[C@H]1C(=O)N(Cc3ccccc3)C(=O)[C@H]1[C@H]2C (stereo partly specified) | -0.3 | 1 | i | 1 | -2 | -2.1 | -14 | 0.75 | 2.0
COc1ccc(Cl)cc1S(=O)(=O)NCc1cccs1 | 3.5 | -6 | x | x | x | x | -2 | 0.78 | 3.0
COc1ccc(/C=N/NS(=O)(=O)c2ccccc2)cc1OC | 2.4 | 3 | i | 2 | 12 | -3.4 | 13 | x | x
CCc1c(C)sc(NC(=O)c2cc(C)on2)c1C#N | -2.0 | -6 | x | x | x | x | 85* | 0.73 | 2.8
O=C(Nc1ccc(F)c(Cl)c1)N1CCCCCC1 | -2.9 | 2 | i | -43 | -59 | -15 | -9 | 0.6 | 0.6
CCOC(=O)c1nnn(CC(=O)Nc2cccc(OC)c2)c1C(=O)OCC | 1.1 | 13 | x | x | x | x | 4 | 0.72 | 4.0
CC1=C(C(=O)N2CCCCC2)C2(CCC(C)CC2)OC1=O (stereo unspecified) | -2.8 | 6 | i | 3 | 9 | -6.4 | -2 | 0.73 | -0.6
COCCCNC(=O)c1cc(Cc2ccccc2)sc1N | 4.8 | x | i | 6 | 0 | 11 | x | x | x
COc1cc(OC)c(OC)cc1/C=N/Nc1ncnc2c1[nH]c1ccccc12 | -2.6 | 25 | i | x | x | x | -20 | x | x
CC(=O)Nc1ccc(NS(=O)(=O)c2c(Cl)cccc2Cl)cc1 | 1.6 | -6 | i | -1 | -7 | -5.5 | -6 | 0.68 | 3.3
C#CCOCCOCCOCCNc1nc(N2CCOCC2)nc(N2CCN(C(=O)[C@H]([C@@H](C)CC)n3cc([C@@H](N)CO)nn3)CC2)n1 | -1.7 | -2 | i | 14 | 18 | -9.0 | -7 | x | 2.5
Cc1cc(C)nc(/N=C(/NC(=O)c2ccccc2)Nc2ccccc2)n1 | -2.0 | -22 | x | x | x | x | -2 | x | x
Cc1ccc(NC(=O)CC(=O)NCCN2CCOCC2)cc1 | -1.1 | -1 | x | x | x | x | -5 | 0.69 | -2.4
CCOC(=O)N1CCN(C(=O)Nc2cccc3ccccc23)CC1 | 0.1 | 5 | i | -11 | -9 | -9.7 | x | 0.71 | -1.6
O=C(NCc1ccccn1)c1[nH]c(C(F)(F)F)nc1-c1ccccc1 | -4.4 | x | i | 7 | 13 | 9.4 | x | x | x
CCc1ccc(NC(=O)C(=O)NCCN2CCN(C(=O)c3ccc(OC)cc3)CC2)cc1 | 3.8 | x | i | 2 | 4 | -1.8 | x | x | x
Cc1cc(C)c2c(n1)SCC(=O)N2CC(=O)Nc1cccc(Cl)c1 | 0.8 | 1 | i | -4 | -30 | -10 | -13 | 0.65 | 5.5
CC1=CC(c2ccc(Cl)cc2)n2nc(NS(=O)(=O)c3ccc(C)cc3)nc2N1 (stereo unspecified) | -1.9 | 3 | x | x | x | x | 96* | 0.74 | -300
CCN(CC)S(=O)(=O)c1ccc(N2CCCC2)c(C(=O)OCC(=O)/C(C#N)=C(\C)N)c1 | -6.0 | -21 | x | x | x | x | 10 | 0.73 | 5.1

Whole records, quoted from the list. Values in the order: HNF4A DNA FP	B2AR ag	FGF22 binding	Ecoli rRNA inh	Ecoli rRNA inh OD600	Ecoli rRNA inh RFP	ALR H2O2 inh	E coli growth	UCH37 DUB inh
Cc1cc(C)nc(/N=C(/NC(=O)c2ccccc2)Nc2ccccc2)n1 is listed with -2.0	-22	x	x	x	x	-2	x	x
Cc1cc(C)c2c(n1)SCC(=O)N2CC(=O)Nc1cccc(Cl)c1 is listed with 0.8	1	i	-4	-30	-10	-13	0.65	5.5
CCc1ccc(NC(=O)C(=O)NCCN2CCN(C(=O)c3ccc(OC)cc3)CC2)cc1 is listed with 3.8	x	i	2	4	-1.8	x	x	x
CCOC(=O)N1CCN(C(=O)Nc2cccc3ccccc23)CC1 is listed with 0.1	5	i	-11	-9	-9.7	x	0.71	-1.6

Only part of the results is shown; the hit share may differ from the screen's.
